# Ecoli rRNA inh: reduced GFP signal of wild-type E. coli, primary screen, bacterial rRNA inhibitor project, GFP/RFP fluorescence, OD600, single point | E. coli WT GFP vs humanized-ribosome RFP mutants, 24 h; active compounds read low; DMSO median 0, no signal -100 | GFP signal change (wild-type ribosome), % (no concentration beside the values) | 1.6% of 350,000 active | AID 720706, 2013;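 active = significant combined selectivity score with lowered wild-type GFP, culture density cut under 30%, mutant RFP and density less affected; inactive = any of these conditions unmet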; also: one replicate is shown; some compounds called inactive have numbers as strong as hits
# MLL AF4-AF9 inh: inhibitors of AF4 peptide binding to AF9, primary screen, biochemical, AlphaScreen, biotin-AF4 peptide, FLAG-AF9, single point; Protein AF-9 (Homo sapiens), P42568; inhibition, % at 10 µM; 0.47% of 350,000 active; AID 651704, 2012;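 active = every replicate reaching a set inhibition limit, whatever the replicate mean, cut at about 25% in these data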;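 also: 0% = plate neutral control median and 100% = total signal loss; the record names both 10 and 1 µM as test concentration; the first replicate is given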
# Target sequence (P42568 whole entry, looked up): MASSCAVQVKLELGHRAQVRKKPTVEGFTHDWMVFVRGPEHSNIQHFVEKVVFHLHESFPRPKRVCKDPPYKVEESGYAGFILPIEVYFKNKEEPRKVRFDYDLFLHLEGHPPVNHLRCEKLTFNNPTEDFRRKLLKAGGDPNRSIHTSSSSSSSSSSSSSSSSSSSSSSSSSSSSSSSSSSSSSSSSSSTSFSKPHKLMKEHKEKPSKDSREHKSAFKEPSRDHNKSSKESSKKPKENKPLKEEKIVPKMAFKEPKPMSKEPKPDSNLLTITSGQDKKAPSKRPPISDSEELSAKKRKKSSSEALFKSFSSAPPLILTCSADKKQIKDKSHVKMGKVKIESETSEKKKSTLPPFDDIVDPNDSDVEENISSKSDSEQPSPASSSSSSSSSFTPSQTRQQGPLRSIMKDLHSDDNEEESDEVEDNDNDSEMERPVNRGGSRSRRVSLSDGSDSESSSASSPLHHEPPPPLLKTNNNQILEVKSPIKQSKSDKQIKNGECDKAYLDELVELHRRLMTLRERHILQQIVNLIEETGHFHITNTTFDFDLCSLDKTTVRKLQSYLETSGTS
# Ecoli rRNA inh OD600: second read-out of Ecoli rRNA inh, no call of its own (marks repeat the call); OD600 change, %; measured here: OD600 growth;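 optical density of the mix in the first replicate; 0 = DMSO median and -100 = no signal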
# Ecoli rRNA inh RFP: recorded beside Ecoli rRNA inh, whose call it bears; RFP signal change, %; measured here: RFP humanized mutant strains;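 first replicate; 0 = DMSO median and -100 = no signal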
# * marks the source's active call; other numbers are inactive results; & = joins results of further samples.
# The opening 2 entries as a preview:
Ecoli rRNA inh	Ecoli rRNA inh OD600	Ecoli rRNA inh RFP	MLL AF4-AF9 inh	canonical_smiles
-54	-77	-20	10	COc1cccc(CNc2nc(NC(C)C)nc3ccsc23)c1OC
-1	-6	1.0	-5.2	CC(C)NC(=O)Nc1ccc2c(c1)C(=O)N([C@@H](C)CO)C[C@@H](C)[C@@H](CN(C)C(=O)C1CCCCC1)OCCCC[C@H](C)O2

# The list itself, from the start:
Ecoli rRNA inh	Ecoli rRNA inh OD600	Ecoli rRNA inh RFP	MLL AF4-AF9 inh	canonical_smiles
-54	-77	-20	10	COc1cccc(CNc2nc(NC(C)C)nc3ccsc23)c1OC
-1	-6	1.0	-5.2	CC(C)NC(=O)Nc1ccc2c(c1)C(=O)N([C@@H](C)CO)C[C@@H](C)[C@@H](CN(C)C(=O)C1CCCCC1)OCCCC[C@H](C)O2
5	8	0.4	0.2	C[C@H]1CN([C@@H](C)CO)C(=O)c2cc(N(C)C)ccc2O[C@@H]1CN(C)CC1CCCCC1
2	15	-3.4	-2.0	CCNC(=O)C[C@H]1CC[C@H](NC(=O)C2CCC2)[C@@H](CO)O1
9	14	1.4	-4.4	Cc1ccc(/C=N/NC(=O)c2c(C)nc3ccc(Cl)cn23)cc1
5	8	4.9	0.1	COc1ccc(CC(N)c2csc(NC(=O)Cc3ccccc3)n2)cc1 (configuration not stated)
1	6	0.1	-1.0	CCC(=O)Nc1ccc2c(c1)C(=O)N(C)[C@@H]1CC[C@@H](CC(=O)O)O[C@@H]1CO2
14	8	2.9	2.0	CC(C)Nc1ncnc2c1ncn2[C@H]1CN(Cc2ccncc2)C[C@@H](CO)O1
2	-11	-0.4	0.4	Cc1noc(C)c1S(=O)(=O)N(C)C[C@@H]1Oc2ccc(NC(=O)Nc3cccc4ccccc34)cc2CC(=O)N([C@H](C)CO)C[C@@H]1C
-3	-23	9.8	1.5	CO[C@H]1CN(C)C(=O)c2ccc(NC(=O)C3CC3)cc2OC[C@H](C)N(Cc2ccc(F)cc2)C[C@@H]1C
-2	-1	-1.7	3.8	C[C@H]1CN([C@@H](C)CO)C(=O)c2cc(C#Cc3cccc(F)c3)cnc2O[C@H]1CN(C)CC1CCOCC1
1	1	-2.2	-1.6	CCC(=O)Nc1ccc2c(c1)C(=O)N(C)[C@@H]1CC[C@@H](CC(=O)NCCOC)O[C@@H]1CO2
0	0	-3.3	-3.2	CC1(C(=O)Nc2ccc3ccccc3c2)CCC(=O)N1CCCn1ccnc1 (configuration not stated)
-1	-1	-3.0	-1.8	COC(=O)N(C)C[C@@H]1OCc2ccccc2-c2c(n(C)c3ccccc23)C(=O)N([C@H](C)CO)C[C@H]1C
-3	-8	2.1	1.6	C[C@@H]1CCCCO[C@@H](CN(C)C(=O)c2ccccc2)[C@H](C)CN([C@H](C)CO)C(=O)c2cc(NC(=O)Nc3ccccc3)ccc2O1
-4	-6	12	18	O=C(C1CCCC1)N1CC[C@@H]2[C@@H](CO)Nc3ccc(C#Cc4ccc(F)cc4)cc3[C@@H]21
1	-3	-1.6	-0.6	O=C(C[C@@H]1C[C@@H]2c3cc(NC(=O)CC4CC4)ccc3O[C@@H]2[C@H](CO)O1)NCC1CC1
5	3	0.5	-2.6	C[C@@H]1CN([C@@H](C)CO)C(=O)c2cc(NC(=O)Cn3cnnn3)ccc2O[C@H]1CN(C)Cc1ccc(C(=O)O)cc1
-2	1	-3.3	2.1	C[C@@H]1CN([C@@H](C)CO)S(=O)(=O)c2ccc(-c3cncnc3)cc2O[C@H]1CN(C)C(=O)C1CCC1
0	5	-0.6	-3.5	Cc1ccc(-c2ccc(C3[C@H]4CNC[C@@H]3N4Cc3nccs3)cc2)cc1 (some centres not stated)
5	13	-2.2	1.2	COc1cccc(-c2ccc3c(c2)O[C@H](CN(C)C)[C@H](C)CN([C@H](C)CO)S3(=O)=O)c1
14	5	-3.1	-0.6	CCOC(=O)C1=CC[C@@H](c2ccccc2)N(S(=O)(=O)c2ccc(C)cc2)[C@H]1C=C(C)C
2	12	-0.9	-0.9	CCC(=O)N(C)C[C@H]1Oc2ncc(-c3ccc(C(=O)N(C)C)cc3)cc2C(=O)N([C@H](C)CO)C[C@@H]1C
-1	-5	1.7	-8.3	Cc1ccc(S(=O)(=O)Nc2ccc3c(c2)C(=O)N([C@H](C)CO)C[C@@H](C)[C@@H](CN(C)C(=O)NC(C)C)OCCCC[C@@H](C)O3)cc1
-3	-6	1.5	5.6	COCC#Cc1ccc2c(c1)O[C@@H](CN(C)Cc1ccccc1F)[C@@H](C)CN([C@H](C)CO)S2(=O)=O
0	-3	-4.8	-8.8	CCCC#Cc1ccc([C@@H]2[C@H]3CN(C(=O)CN4CCOCC4)CC(=O)N3[C@H]2CO)cc1
3	4	2.8	2.4	COc1ccc2c3c(n(C)c2c1)[C@H](CO)N(CC1CC1)CC31CCN(C(=O)c2ccc3c(c2)OCO3)CC1
2	6	-0.7	2.1	C[C@H](CO)N1C[C@H](C)[C@H](CN(C)Cc2ccc(C(=O)Nc3ccccc3N)cc2)Oc2c(NC(=O)C3CC3)cccc2C1=O
0	3	0.1	-2.4	COc1ccccc1C(=O)Nc1ccc2c(c1)OC[C@H](C)N(C(C)=O)C[C@@H](C)[C@@H](OC)CN(C)C2=O
-5	-30	9.8	3.0	COc1ccc(CN2CCC2(C)C(=O)NCCc2c[nH]c3ccccc23)c2ccccc12 (configuration not stated)

# The final 3 compounds of the section above open the next one:
Ecoli rRNA inh	Ecoli rRNA inh OD600	Ecoli rRNA inh RFP	MLL AF4-AF9 inh	canonical_smiles
2	6	-0.7	2.1	C[C@H](CO)N1C[C@H](C)[C@H](CN(C)Cc2ccc(C(=O)Nc3ccccc3N)cc2)Oc2c(NC(=O)C3CC3)cccc2C1=O
0	3	0.1	-2.4	COc1ccccc1C(=O)Nc1ccc2c(c1)OC[C@H](C)N(C(C)=O)C[C@@H](C)[C@@H](OC)CN(C)C2=O
-5	-30	9.8	3.0	COc1ccc(CN2CCC2(C)C(=O)NCCc2c[nH]c3ccccc23)c2ccccc12 (configuration not stated)
4	6	-0.3	-3.6	Cc1noc(C)c1S(=O)(=O)Nc1ccc2c(c1)C(=O)N([C@@H](C)CO)C[C@H](C)[C@H](CN(C)S(C)(=O)=O)O2
2	12	0.7	-2.0	O=C(C[C@H]1C=C[C@@H](NC(=O)Cc2ccccn2)[C@@H](CO)O1)NCCc1ccncc1
4	5	0.6	-2.5	CO[C@@H]1CN(C)C(=O)c2ccc(NC(C)=O)cc2OC[C@@H](C)N(Cc2cncnc2)C[C@H]1C
-2	-9	2.9	6.9	C[C@H](CO)N1C[C@H](C)[C@@H](CN(C)Cc2ccc3c(c2)OCO3)Oc2ccc(NC(=O)Nc3ccc(F)cc3)cc2C1=O
-1	-2	-3.4	-1.6	COC(=O)[C@]12CCCCC=C1N(CCc1ccc(OC)c(OC)c1)C(=O)[C@H](CC(=O)N1CCCCC1)C2
-1	1	0.4	-1.7	O=C(CC1CC1)N[C@H]1CC[C@@H](CCNS(=O)(=O)c2ccc(F)cc2)O[C@@H]1CO
7	-3	3.3	-3.3	CCCC(=O)OCC1CN(Cc2ccco2)S(=O)(=O)c2c(F)cccc2O1 (configuration not stated)
-5	-7	-1.7	4.3	COC(=O)c1ccc2nc(C3CCCCC3)c(Cc3cccc(Cl)c3)n2c1
-4	-5	0.8	2.6	C[C@@H]1CN([C@H](C)CO)C(=O)Cc2cc(NC(=O)C3CCCCC3)ccc2O[C@@H]1CN(C)Cc1ccccc1
-1	3	0.1	-2.1	C[C@H]1CN([C@@H](C)CO)C(=O)Cc2cc(NS(=O)(=O)c3ccc(Cl)cc3)ccc2O[C@H]1CN(C)C
-1	2	-2.4	-2.1	C[C@@H]1CN([C@H](C)CO)S(=O)(=O)c2ccc(C3=CCCC3)cc2O[C@@H]1CN(C)C(=O)Cc1ccncc1
-3	1	-0.9	-1.0	CC=Cc1ccc2n(c1=O)C[C@@H]1[C@@H](CO)[C@H](C(=O)NCC3CC3)N(CCC(F)(F)F)[C@H]21 (mixture of isomers)
1	-10	29	-2.7	COc1cccc(C#Cc2ccc([C@H]3[C@H]4CN(C(=O)Cc5ccccc5)CC(=O)N4[C@H]3CO)cc2)c1
-8	-37	22	5.9	Cc1cccnc1C(NC(=O)C1CCN(CCCc2ccccc2)CC1)c1ccc(Cl)cc1 (configuration not stated)
-6	-5	1.4	-3.0	N#Cc1cccc(-c2ccc([C@H]3[C@@H](CO)N[C@@H]3CNC(=O)C3CC3)cc2)c1
2	5	0.5	2.0	CC=Cc1ccc2n(c1=O)C[C@@H]1[C@@H](CO)[C@H](C(=O)NCCN3CCCC3)N(C(=O)NC(C)C)[C@H]21 (mixture of isomers)
-2	-12	0.4	-2.3	C[C@H](CO)N1C[C@H](C)[C@H](CN(C)Cc2ccc(C(=O)Nc3ccccc3N)cc2)Oc2ccc(NS(=O)(=O)c3ccc(Cl)cc3)cc2CC1=O
2	3	-1.5	-1.8	CO[C@@H]1CN(C)C(=O)c2cc(NC(=O)C3CCC3)ccc2OC[C@@H](C)N(C)C[C@H]1C
-9&-1	-14&2	-0.3&0.4	0.7&0.0&-2.2	C[C@@H]1CN([C@@H](C)CO)C(=O)CCCn2cc(nn2)CO[C@H]1CN(C)C(=O)Nc1ccc(C(F)(F)F)cc1
-5	0	0.4	0.2	C/C=C/c1ccc([C@H]2[C@@H](CNC(=O)c3ccccn3)N(C(=O)CC)[C@H]2CO)cc1

# Whole records from above. Order of screens: Ecoli rRNA inh, Ecoli rRNA inh OD600, Ecoli rRNA inh RFP, MLL AF4-AF9 inh
# `Cc1cccnc1C(NC(=O)C1CCN(CCCc2ccccc2)CC1)c1ccc(Cl)cc1` (configuration not stated) as listed: -8, -37, 22, 5.9
# `C/C=C/c1ccc([C@H]2[C@@H](CNC(=O)c3ccccn3)N(C(=O)CC)[C@H]2CO)cc1` as listed: -5, 0, 0.4, 0.2
# `C[C@H](CO)N1C[C@H](C)[C@H](CN(C)Cc2ccc(C(=O)Nc3ccccc3N)cc2)Oc2ccc(NS(=O)(=O)c3ccc(Cl)cc3)cc2CC1=O` as listed: -2, -12, 0.4, -2.3

# (list continues)
Ecoli rRNA inh	Ecoli rRNA inh OD600	Ecoli rRNA inh RFP	MLL AF4-AF9 inh	canonical_smiles
4	11	-1.0	-3.0	CC(C)C(=O)Nc1ccc2c(c1)C(=O)N(C)[C@H]1CC[C@H](CC(=O)NCC3CC3)O[C@@H]1CO2
0	9	-0.7	-0.8	C[C@@H]1CCCCO[C@H](CN(C)C(=O)NC2CCCCC2)[C@@H](C)CN([C@H](C)CO)C(=O)c2cc(NC(=O)CCCCCC(=O)Nc3ccccc3N)ccc2O1
-3	-2	-2.2	0.3	C[C@@H](O)C#Cc1ccc2c(c1)O[C@H](CN(C)Cc1cccnc1)[C@@H](C)CN([C@@H](C)CO)S2(=O)=O
2	-3	6.2	-1.0	COc1ccc(-c2nc3cc(C)c(Br)c(C)n3c2Cc2ccccc2)cc1OC
3	10	-1.1	1.0	COc1ccccc1C(C)NC(=O)c1ccc(NC(=O)CC2SC(N3CCCC3)=NC2=O)cc1 (configuration not stated)
-2	0	-1.2	3.1	CC1(C)CC(=O)C(C(c2ccc3c(c2)OCO3)C2C(=O)CC(C)(C)CC2=O)C(=O)C1
7	18	1.9	-9.0	C[C@@H]1CN([C@@H](C)CO)C(=O)c2cc(C#CC3CC3)cnc2O[C@@H]1CN(C)S(C)(=O)=O
1	7	-4.6	-1.9	COc1ccc(-c2ccc([C@H]3[C@@H](CO)N4C(=O)CN(C(=O)c5ccccn5)C[C@@H]34)cc2)cc1
1	-2	-2.1	-1.7	Cc1ccccc1-c1ccc([C@H]2[C@@H](CO)N3C(=O)CN(C(=O)c4ccncc4)C[C@H]23)cc1
1	1	-6.1	-2.0	Cc1noc(C)c1S(=O)(=O)Nc1ccc2c(c1)CC(=O)N([C@H](C)CO)C[C@@H](C)[C@@H](CN(C)C)O2
-2	-2	1.5	-5.8	COc1cc(CN2CC3(CN(C(=O)c4cccnc4)C3)c3c([nH]c4cc(OC)ccc34)[C@@H]2CO)cc(OC)c1
3	12	0.2	0.1	C[C@H]1CN([C@@H](C)CO)C(=O)c2cc(NS(=O)(=O)c3cn(C)cn3)ccc2O[C@H]1CN(C)C(=O)Nc1cccc2ccccc12
9	4	-0.3	-1.6	C[C@H]1COc2cc(N3CC[C@H](O)C3)ccc2S(=O)(=O)N1
-1	-3	0.2	2.9	COc1ccccc1NC(=O)N1C[C@H](O)COC[C@H]2O[C@@H](CC(=O)N3CCC(Cc4ccccc4)CC3)CC[C@@H]21
0	9	-1.6	-3.9	COCC(=O)N(C)C[C@@H]1Oc2cc(C#CCN(C)C)ccc2S(=O)(=O)N([C@H](C)CO)C[C@@H]1C
2	8	-0.7	-3.1	CN1C(=O)c2cc(NC(=O)C3CC3)ccc2OC[C@@H]2O[C@@H](CC(=O)O)CC[C@H]21
-3	1	-2.4	-1.1	O=C(C[C@@H]1CC[C@@H]2[C@H](COC[C@H](O)CN2CCC(F)(F)F)O1)NCC1CCCCC1
-3	3	-0.4	-3.0	C[C@@H]1CN([C@@H](C)CO)C(=O)c2cc(NS(=O)(=O)c3cn(C)cn3)ccc2O[C@@H](C)CCCCO[C@H]1CN(C)S(=O)(=O)c1cccs1
9	9	-1.0	0.6	Cc1ccc(-c2cnc3c(c2)C(=O)N([C@@H](C)CO)C[C@@H](C)[C@@H](CN(C)CC2CC2)O3)cc1
1	10	-1.1	-5.9	C[C@@H]1CN([C@@H](C)CO)C(=O)c2cc(C#Cc3ccncc3)cnc2O[C@@H]1CN(C)S(=O)(=O)c1ccccc1F

# From PubChem

# Some of the compounds tested. The share of hits here may be higher or lower than overall.
